# VACV Venus inh: vaccinia inhibition (Venus reporter); Vaccinia virus Venus reporter expression, fluorescence; Potency, µM (highest dose often 36.5 µM), without a hit: top-dose activity change, negative = inhibition, actives largely listed as inhibitors; 330,000 tested, 0.46% active; AID 720580; active means well fitted inhibition curve with a large enough effect; inconclusive means small, poorly fitted or top-dose-only effect; inactive means no such curve, though single readings can be large or run the other way; tested in A549 cells; further: nearly all actives have a fitted effect of over 30% in size; inactives centre near -10
# Vaccinia mCherry: inhibitors of vaccinia virus infection (mCherry reporter signal). Vaccinia virus mCherry reporter infection, fluorescence; about a quarter of the inactives have no number. Potency, µM (series often up to 36.5 µM), without a hit: at the highest dose activity change, negative = inhibition, most hits filed as inhibitors. 310,000 tested, 0.63% active; active = well fitted inhibition curve with a large enough effect; inconclusive = small, poorly fitted or top-dose-only effect; inactive = no such curve, though single readings can be large or run the other way; tested in A549 cells; further: nearly all actives have a fitted effect of over 35% in size; inactives centre near -10
# Starred values were filed as active, the others as inactive; i = inactive; ? = inconclusive; . = not tested or not shown; [ ] = another dose, or the depositor's remark. On the % scale 0 is the no-effect control and ±100 the full control effect; potency means the concentration at half of the fitted maximal effect.
SMILES,VACV Venus inh,Vaccinia mCherry
CCOc1ccc(Cc2nnc(SCC(=O)Nc3c(C)cccc3C)[nH]c2=O)cc1,-10.4%,i
CC(=O)Nc1ccc(-c2cc(N)n(-c3ccccc3)n2)cc1,-8.3%,-21.2%
O=C(N=C1SC2CS(=O)(=O)CC2N1c1ccccc1F)C1CCCCC1 (stereo not drawn),1.8%,-10.2%
COc1cc(NC(=O)c2cccc(C)c2)c(OC)cc1NC(=O)CN1CCOCC1,-18.8%,-2.1%
COc1ccccc1NC(=O)Nc1nc(CC(=O)Nc2cccc(F)c2)cs1,?,?
Cc1cc(O)c(/C=N/Nc2ccc(F)cc2)c(=O)o1,-11.5%,-15.7%
CCN1CCCC1CNC(=O)c1ccc(CS(=O)(=O)c2ccccc2C)o1 (stereo not drawn),-16.0%,.
Cc1ccc(/C=N/n2c(C)cc(C)c(C#N)c2=O)o1,-9.2%,-12.8%
O=c1c(-c2ccc(Br)cc2)coc2c(CN3CCOCC3)c(O)ccc12,-4.5%,.
CCOC(=O)c1c(NC(=O)CSc2nnc(-c3ccccc3)n2CC)sc(C(C)=O)c1C,-14.1%,-16.1%
Cc1cccc(-n2c(SCC(=O)Nc3nnc(C)s3)nnc2-c2ccoc2C)c1,-11.1%,-19.4%
CCN(CC(=O)NCc1ccc(F)cc1)C(=O)c1ccc(C(=O)c2ccccc2)cc1,-12.4%,-0.3%
O=C1CCCN1c1ccc(S(=O)(=O)Nc2cccnc2)cc1,13.4%,-0.3%
Cc1c(Cl)cccc1NC(=S)NC1CCCC1,-11.9%,i
CCCCC[C@H](O)/C=C/C1C(=O)C=C[C@H]1C/C=C\CCCC(=O)OC (stereo partly drawn),15.0%,-10.9%
NS(=O)(=O)c1ccc(NC(=O)c2ccc(S(=O)(=O)N3CCCCCC3)cc2)cc1,-16.7%,-2.8%
CN1CCCC1CCNc1ccc2c(=O)c3ccccc3oc2c1 (stereo not drawn),-21.7%,0.0%
COc1ccc(C(=O)NCc2nnc(SCC(=O)N3CCc4ccccc43)n2Cc2ccccc2)cc1,-15.8%,-10.3%
COc1ccc(C(C(=O)NCC2CCCO2)N(C(=O)CNC(=O)c2cccs2)c2ccccc2)cc1OC (stereo not drawn),5.7%,-2.7%
COCCOC(=O)c1c(C)oc2ccc(OC(=O)c3ccc4c(c3)OCO4)cc12,0.2%,-7.8%
COc1cccc(CNC(=O)C(=O)NCC2CCCN2S(=O)(=O)c2cc(C)ccc2C)c1 (stereo not drawn),-21.0%,-2.1%
Clc1ccc(Cn2cc(Br)cn2)cc1Cl,-5.2%,i
Oc1ccc(Br)cc1C=Nc1cccn2cc(-c3ccccc3)nc12,-8.2%,-12.6%
Cc1c(-c2ccccc2)n(-c2ccc(Cl)cc2)c2nc3c(c(=O)n(C)c(=O)n3C)n12,-0.4%,-1.7%
O=C(OCc1ccccc1)N1CCC2CC1c1cc(/C=C/CCCSc3ncccn3)ccc12 (stereo not drawn),-20.0%,-2.0%
O=C(COC(=O)CNC(=O)c1cc(Cl)cc([N+](=O)[O-])c1)NC(=O)NCc1ccco1,-1.2%,-13.1%
Cc1c(C(=O)NCc2ccc([N+](=O)[O-])cc2)sc(=O)n1Cc1ccc(-c2ccccc2)cc1,-17.1%,-13.6%
Fc1ccc(C2=CC(c3cccs3)n3nnnc3N2)cc1 (stereo not drawn),8.2%,1.2%
CCC1(C2CCN(C(=O)c3cc(C)cc(C)c3)CC2)NC(=O)N(CCc2scnc2C)C1=O (stereo not drawn),-7.2%,-22.0%
N/C(=N\OC(=O)CCCc1ccccc1)c1ccc([N+](=O)[O-])cc1,-0.9%,i

# Complete entries, looked up by structure. Order of values: VACV Venus inh, Vaccinia mCherry
# Results for CN1CCCC1CCNc1ccc2c(=O)c3ccccc3oc2c1 (stereo not drawn) = -21.7%, 0.0%
# Results for O=C(OCc1ccccc1)N1CCC2CC1c1cc(/C=C/CCCSc3ncccn3)ccc12 (stereo not drawn) = -20.0%, -2.0%
# Results for CCC1(C2CCN(C(=O)c3cc(C)cc(C)c3)CC2)NC(=O)N(CCc2scnc2C)C1=O (stereo not drawn) = -7.2%, -22.0%
# Results for Cc1c(-c2ccccc2)n(-c2ccc(Cl)cc2)c2nc3c(c(=O)n(C)c(=O)n3C)n12 = -0.4%, -1.7%

# Other records.
SMILES,VACV Venus inh,Vaccinia mCherry
COc1ccc(CN(CC(=O)NCC2CCCO2)C(=O)CCC(=O)Nc2cc(C)ccn2)cc1 (stereo not drawn),-1.6%,i
Cc1cc(C)cc(C(=O)NCC(c2ccc(N(C)C)cc2)N2CCCC2)c1 (stereo not drawn),-16.9%,-5.1%
COC(=O)[C@H](Cc1ccccc1)NC(=O)[C@@H](N)CC(=O)OCc1ccccc1,-3.4%,2.6%
CCCC(=O)Nc1ccccc1NC(=O)CN(C)S(=O)(=O)c1ccccc1,-5.5%,-13.8%
COc1ccc(Cl)cc1N=Cc1c(O)cc(C)oc1=O,-3.5%,-9.0%
COc1ccccc1NC(=O)N1CCC(NC(=O)C2CCCCC2)CC1,-15.4%,-7.8%
C#CCOCCOCCOCCNc1nc(N2CCN(C(=O)[C@H](CCCCN)n3cc(CN)nn3)CC2)nc(N2CCN(C(=O)[C@H](CCCN=C(N)N)n3cc(C(N)[C@H](C)CC)nn3)CC2)n1 (stereo partly drawn),-9.8%,i
CCCCCCc1c(C)c2c(cc(C)c3c(C)coc32)oc1=O,5.7%,-15.4%
O=C1CCCC2=C1C(c1cccs1)n1ncnc1N2 (stereo not drawn),-8.1%,i
O=[N+]([O-])c1cccc(N=NN(CCO)c2cccc([N+](=O)[O-])c2)c1,-4.2%,0.0%
O=C1c2cccc3cccc(c23)C(c2nc3ccccc3[nH]2)N1C1CC1 (stereo not drawn),-8.0%,-3.7%
O=S1(=O)CCO[C@H]2CCCC[C@@H]2N1Cc1ccccc1F,-10.7%,i
COCCCNC(=O)CN(c1cc(Cl)cc(Cl)c1)S(C)(=O)=O,-13.9%,-6.3%
O=C(CCN1C(=O)c2ccccc2S1(=O)=O)Nc1nc2c(s1)CCCC2,-5.5%,i
CC12CCC(/C(=C/NNc3ccc([N+](=O)[O-])cc3[N+](=O)[O-])C1=O)C2(C)C (stereo not drawn),-17.4%,-8.6%
COc1ccc(NC(=O)CC2C(=O)N(c3cccc(OC)c3)C(=O)N2C2CCCCC2)cc1 (stereo not drawn),-6.7%,-14.7%
CN1CCN(C2CN(Cc3cn(Cc4ccc(F)cc4)nn3)S(=O)(=O)C2)CC1 (stereo not drawn),5.3%,31.3%[activator]
COc1ccc(N2CCN(C(=O)CSCc3ccc(C)cc3)CC2)cc1,-2.8%,-1.3%
CCCN(CC(=O)Nc1ccc(F)c(F)c1F)C(=O)c1cc([N+](=O)[O-])ccc1N1CCOCC1,-15.0%,i
CCCCCc1c2c(cc(O)c1C(=O)O)OC(=O)c1cc(C(=O)CCCC)c(OC)cc1O2,-7.9%,-10.4%
O=[N+]([O-])c1cc(-c2csc(NCCc3nc4cc(C(F)(F)F)ccc4n3CCCO)n2)ccc1Cl,-11.2%,i
Nc1c(N(Cc2ccccc2)C(=O)COc2ccc(F)cc2)c(=O)[nH]c(=O)n1Cc1ccccc1,-22.5%,-5.5%
COc1ccc(O)c(CN2CC3CCC(CC3)C2)c1,-13.4%,-22.0%
CC(NC(=O)/C=C/c1ccc(Br)cc1)c1ccccc1 (stereo not drawn),-6.2%,-20.0%
CS(=O)(=O)c1cccc(NC(=O)C2CCCN2S(=O)(=O)c2ccc(F)cc2)c1 (stereo not drawn),9.9%,-6.8%
O=C(O)c1ccc(/C=C2\SC(=S)N(Nc3ccccc3)C2=O)cc1,6.6%,?
O=C1CCCC(O)=C1C=Nc1ccc2c(c1)oc1ccccc12,-10.3%,.
O=C(Oc1cc(-c2ccccc2)no1)c1ccc(Cl)cc1,-11.8%,-13.4%
c1ccc(C2CCC(N3CCNCC3)CC2)cc1 (stereo not drawn),-5.2%,-13.7%
COc1ccc(-c2cc(C(F)(F)F)nc(SCC(=O)NC(C)c3ccccc3)n2)cc1 (stereo not drawn),-1.9%,-8.4%
NCCCNC(=O)c1cc2ccccc2[nH]1,-25.3%,.
CC(=O)c1c(N2CCN(Cc3ccc4c(c3)OCO4)CC2)nc(=S)n(-c2ccccc2)c1C,-13.2%,i
O=C(Nc1ccccc1F)c1ccc2c(c1)CCN2S(=O)(=O)c1ccccc1,-19.9%,-7.4%
COc1ccc(S(=O)(=O)N/N=C(/C)c2cccc(NC(=O)c3ccccc3Cl)c2)cc1,3.6%,-18.4%
O=C(/C=C/c1c(F)cccc1Cl)NCc1ccco1,?,i
NS(=O)(=O)c1ccc(CCNC(=O)CN2CCCCC2)cc1,1.8%,i
Cc1cccc(N(C)C(=O)c2cc3c(=O)[nH]c4ccc(C)cc4c3s2)c1,-23.0%,?
COc1ccc(CC(C)NC2CCCCCC2)cc1 (stereo not drawn),-5.0%,-29.4%
COc1ccc2oc(C(=O)NCCN3CCOCC3)c(C)c2c1OC,-9.4%,-11.3%
COC(=O)[C@@H](NC(=O)NC1CCN(Cc2ccccc2)CC1)C(C)C,-13.9%,.
O=C(Nc1cccnc1Cl)c1cc(-c2cccc(O)c2)on1,9.5%,-17.4%
CCOC(=O)c1ccc(NC(=O)C2C3CCCCC32)cc1 (stereo not drawn),-24.3%,-27.3%
Cc1ccc(NC(=O)CN(C)C(=O)Cn2cc(C(F)(F)F)ccc2=O)cc1,-6.4%,-17.0%
Cc1cnc(NC(=O)/C=C/c2ccc(Br)o2)s1,-1.2%,-9.6%
Clc1ccccc1Cn1c(/C=C/c2ccco2)nc2ccccc21,-13.3%,-19.8%
C=CCn1c(SCc2nnc(-c3ccccc3)o2)nnc1C(O)c1ccccc1 (stereo not drawn),-8.4%,-14.2%
Cc1ccc(S(=O)(=O)N2CCc3cc(C(=O)Nc4c(F)cccc4F)ccc32)cc1,-12.9%,-8.9%
Cc1cc(C)c2c(N)c(C(=O)NNC(=O)c3ccccc3)sc2n1,-11.6%,i
Cc1ccc(OCC(=O)Nc2ccccc2C(=O)N2CCCC2)cc1,-20.8%,-6.2%
CCN(CC)C(=O)C1CCN(c2ncnc3c2cnn3-c2ccc(C)cc2C)CC1,-16.4%,-11.3%
Cc1cccc(C(=O)Nc2ccc(N3CC=C(c4ccccc4C)CC3)c(C(=O)O)c2)c1,-7.5%,-1.1%
O=[N+]([O-])c1ccc2[nH]c(=S)sc2c1,-20.1%,-19.5%
COc1ccc(S(=O)(=O)N2CCCCC2)cc1NC(=O)C1CC(=O)N(Cc2ccco2)C1 (stereo not drawn),-3.1%,-23.1%
Cc1cc(C(=O)O)oc(=O)c1,-6.1%,-14.7%
O=C(CCc1ccco1)CCc1ccco1,-1.2%,-4.7%
CCCNC(=O)c1cc(C2CCCCN2S(=O)(=O)Cc2cccc(C(F)(F)F)c2)on1 (stereo not drawn),-15.4%,i
COCCn1c(C)cc(O)c(C(c2ccccc2)N2CCN(CCO)CC2)c1=O (stereo not drawn),-12.6%,i
CN(c1cccc(NC(=O)c2cccc([N+](=O)[O-])c2)c1)S(C)(=O)=O,-0.1%,i
CCOC(=O)Nc1cccc(C(=O)O)c1,0.2%,.
COc1ccc(N2C[C@H](CSC)[C@@H](CC(=O)Nc3ccccc3)C2=O)cc1,-8.7%,-3.0%
# The listing continues.
SMILES,VACV Venus inh,Vaccinia mCherry
CCCCN(C(=O)C1CCC(CNS(=O)(=O)c2cccc3nsnc23)CC1)c1ccccc1 (stereo not drawn),-15.0%,-23.9%
C/C(=N\NC(=O)C1CC1)c1ccc(OC(F)F)cc1OC(F)F,3.9%,i
Cc1ccc(CN2CCN(Cc3nc4c(s3)CCCC4)CC2CCO)cc1 (stereo not drawn),9.1%,i
C=CCNC(=O)COC(=O)c1ccc(C)c(NC(=O)c2ccco2)c1,-7.3%,-10.1%
COc1ccc(C(=O)N/N=C(\C)c2ccccn2)cc1OC,?,2.24µM*
COc1cc(CNCCc2ccccc2)ccc1OCc1ccc(Cl)nc1,-10.6%,-1.4%
C[C@H](CO)N1C[C@H](C)[C@@H](CN(C)Cc2ccc3c(c2)OCO3)Oc2c(NC(=O)C3CC3)cccc2C1=O,-26.2%,i
COc1cccc(CN(C)C(=O)CC2C(=O)NCCN2C2Cc3ccccc3C2)c1 (stereo not drawn),-13.2%,-10.6%
CCN(CC(=O)NCCC1=CCCCC1)S(=O)(=O)c1ccccc1,-3.9%,-7.6%
O=C(NCc1ccccc1)c1ccc(OCC2CCCO2)cc1 (stereo not drawn),-11.7%,-26.8%
Cc1ccc(NC(=O)c2ccc(S(=O)(=O)NCC3CCCO3)cc2)cc1 (stereo not drawn),-9.6%,-17.4%
O=C(NCCc1ccccc1)c1cc(-c2ccc(Cl)cc2)on1,-1.2%,-9.8%
COc1nc(OCCNC(C)=O)nc(N(C)C)n1,-3.3%,-5.5%
O=S(=O)(CC=CCS(=O)(=O)c1ccccc1)c1ccccc1,?,?
Cc1cc2c3nonc3ccc2n1C,?,.

# Reprinted from the part before: two entries, then new ones.
SMILES,VACV Venus inh,Vaccinia mCherry
O=S(=O)(CC=CCS(=O)(=O)c1ccccc1)c1ccccc1,?,?
Cc1cc2c3nonc3ccc2n1C,?,.
CN1C2CCC1CC(OC(=O)c1cccc(O)c1)C2 (stereo not drawn),-0.6%,-1.9%
O=C(NCCCN1CCN(CCCNC(=O)c2ccc(F)cc2)CC1)c1ccc(F)cc1,-7.0%,-17.2%
O=C(O)c1ccc(N=Nc2c(-c3ccccc3)[nH]oc2=O)cc1,-10.3%,-4.9%
O=C(CN1CCc2ccccc2C1)Nc1ccccc1C(=O)NC1CC1,-6.3%,i

# Bioassay records: PubChem, National Center for Advancing Translational Sciences (NCATS)
